Vaccinia inh: blocks a specific stage of Vaccinia orthopoxvirus infection, primary screen, cell-based, single point; Vaccinia-infected cells, mCherry/Venus stage reporter fluorescence; stronger effect = lower value; some inactives read as strong as hits; activity change (mCherry), % (no concentration beside the values); hit rate 0.01% among 89,000; AID 1053133, 2014;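 active means mCherry past -33% and 40 or more points under the early reporter, replicates agreeing; inconclusive means past -33% without that gap or agreement; tested in A549 cells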;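 further: scaled between vehicle wells and reference inhibitor wells; 23 nL library stock went into each well; one replicate is shown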
Vaccinia inh Venus: second read-out of Vaccinia inh, no call of its own (marks repeat the call); activity change (Venus), %; measured here: Venus reporter, other viral stage;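 negative = less Venus signal; first of two replicates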
* = called active by the depositor; ? = inconclusive; · = no result given; & = joins results of further samples. The list is partial; count on the stated rates, not on these rows.

SMILES	Vaccinia inh	Vaccinia inh Venus
O=C(NC1CCCC1)N1CCCCN2[C@H](CO)[C@H](c3ccc(-c4ccncc4)cc3)[C@H]2C1	0	-7
C[C@H]1CN([C@@H](C)CO)S(=O)(=O)c2ccc(C#CCN(C)C)cc2O[C@H]1CN(C)Cc1cccnc1	6	-8
CC(C)C#Cc1cnc2c(c1)C(=O)N([C@@H](C)CO)C[C@H](C)[C@@H](CN(C)Cc1ccccc1F)O2	-9	-10
O=C(C[C@@H]1C[C@@H]2c3cc(NC(=O)Nc4ccccc4F)ccc3O[C@@H]2[C@H](CO)O1)NC1CCCC1	5	1
O=C(C[C@H]1CC[C@@H](NC(=O)C2CC2)[C@@H](CO)O1)NCCCN1CCOCC1	2	2
O=C(O)[C@H]1[C@H](CO)[C@H]2Cn3c(ccc(-c4cncnc4)c3=O)[C@H]2N1C(=O)C1CCCC1	17	6
COc1cccc(NC(=O)N2CC(=O)N3[C@@H](CO)[C@H](c4ccc(C#CC5CCCC5)cc4)[C@@H]3C2)c1	?	·
CCN(C[C@@H]1[C@@H](c2ccc(-c3cccnc3)cc2)[C@@H](CO)N1C(C)=O)C(C)=O	1	-1
O=C(c1ccccc1)N1C[C@H]2[C@@H](c3ccccc31)[C@H](CO)N2C(=O)c1cccc(F)c1	-5	15
C[C@H]1CN([C@@H](C)CO)C(=O)c2cc(NC(=O)Cn3cnnn3)ccc2O[C@@H]1CN(C)S(=O)(=O)c1ccc(Cl)cc1	12	11
O=C(NCc1ccccc1F)[C@H]1[C@H](CO)[C@H]2Cn3c(cccc3=O)[C@H]2N1CC1CCCC1	-7	-1
COc1cccc(C(=O)Nc2ccc3c(c2)OC[C@@H](C)N(CC2CC2)C[C@H](C)[C@H](OC)CN(C)C3=O)c1	-14	-12
COc1ccccc1NC(=O)N1C[C@@H](O)COC[C@@H]2O[C@H](CC(=O)NCCc3ccccc3)CC[C@H]21	-1	-3
CN(C)C(=O)c1ccc(-c2ccccc2[C@@H]2[C@@H](C#N)N(C(=O)C3CCC3)[C@@H]2CO)cc1	0	0
COc1ccc(S(=O)(=O)Nc2ccc3c(c2)CC(=O)N([C@H](C)CO)C[C@H](C)[C@H](CN(C)Cc2ccc(C(=O)O)cc2)O3)cc1	17	32
O=C(C[C@@H]1C[C@H]2c3cc(NC(=O)C4CCC4)ccc3O[C@H]2[C@@H](CO)O1)NC1CCCC1	-2	5
CNC[C@H]1Oc2ccc(NC(=O)CCCN(C)C)cc2CC(=O)N([C@H](C)CO)C[C@@H]1C	9	11
C/C=C/c1ccc([C@@H]2[C@@H](CO)N3CCCCN(S(=O)(=O)c4cccs4)C[C@@H]23)cc1	8	-9
C[C@@H]1CN([C@H](C)CO)C(=O)c2cccc(NC(=O)Nc3cccc4ccccc34)c2O[C@@H]1CN(C)C(=O)Nc1cccc2ccccc12	-15	5
CN(C)C(=O)C[C@H]1CC[C@@H]2[C@H](COC[C@@H](O)CN2C(=O)c2ccncc2)O1	1	9
CC(C)NC(=O)N1[C@H](CO)[C@H](c2ccccc2)C12CN(C(=O)CN(C)C)C2	-4	-3
COc1ccc(CN(C)C[C@H]2OCCCC[C@H](C)Oc3ccc(NS(=O)(=O)c4ccc(C)cc4)cc3C(=O)N([C@@H](C)CO)C[C@H]2C)cc1	?	·
C[C@@H]1CN([C@H](C)CO)C(=O)c2cc(C#Cc3ccccc3F)cnc2O[C@@H]1CN(C)S(=O)(=O)c1ccccc1F	?	-20
CCC(=O)Nc1ccc2c(c1)C(=O)N(C)C[C@H](OC)[C@@H](C)CN(Cc1ccccc1C(=O)O)[C@H](C)CO2	11	7
C[C@@H]1CN([C@H](C)CO)C(=O)Cc2cc(NC(=O)Cc3ccccc3)ccc2O[C@@H]1CN(C)CC1CCCCC1	-24	-18
C[C@@H]1CCCCO[C@@H](CN(C)C(=O)Nc2ccc(C(F)(F)F)cc2)[C@H](C)CN([C@H](C)CO)C(=O)c2cc(NS(C)(=O)=O)ccc2O1	?	·
COc1ccc(CN2[C@@H]3CN(C(=O)NC(C)C)c4ccccc4[C@@H]3[C@@H]2CO)cc1	13	2
C[C@H](CO)N1C[C@H](C)[C@@H](CN(C)S(=O)(=O)c2ccc(Cl)cc2)Oc2ccc(N(C)C)cc2C1=O	-9	-3
Cc1ccc(S(=O)(=O)N(C)C[C@@H]2Oc3ccc(NC(=O)CCN4CCOCC4)cc3C(=O)N([C@@H](C)CO)C[C@H]2C)cc1	16	11
C[C@@H]1CN([C@H](C)CO)C(=O)c2cccc(N(C)C)c2O[C@H]1CN(C)Cc1ccc(Oc2ccccc2)cc1	-12	-11
COc1cccc(S(=O)(=O)N2CCC3(CC2)CN[C@@H](CO)c2c3c3ccc(OC)cc3n2C)c1	?	·
COc1ccc(CN(C)C[C@H]2Oc3ccc(NS(C)(=O)=O)cc3CC(=O)N([C@@H](C)CO)C[C@H]2C)cc1	-2	-5
C/C=C/c1ccc([C@@H]2[C@@H](CN(C)S(C)(=O)=O)N(C(C)=O)[C@H]2CO)cc1	-2	5
CN(C)C(=O)c1ccc(-c2ccc(C3[C@@H]4CN(C(=O)c5cnccn5)C[C@H]3N4)cc2)cc1 (stereo partly drawn)	-4	-11
O=C(C[C@@H]1CC[C@@H](NC(=O)C2CCC2)[C@@H](CO)O1)NC1CCCCC1	17	3
COc1ccc(CCN2C(=O)[C@@]3(Cc4ccccc42)c2ccccc2C(=O)N(Cc2ccccc2C(F)(F)F)[C@H]3c2ccc(CO)cc2)cc1	10	6
CO[C@H](CN(C)C(=O)c1ccccc1F)[C@H](C)CN([C@@H](C)CO)S(=O)(=O)c1ccc(F)cc1	-2	-2
COCC(=O)Nc1ccc2c(c1)OC[C@H](C)N(C(=O)c1cnccn1)C[C@@H](C)[C@@H](OC)CN(C)C2=O	15	13
C[C@@H]1CN([C@H](C)CO)C(=O)CCCn2nncc2CO[C@H]1CN(C)S(=O)(=O)c1ccc(Oc2ccccc2)cc1	0	-4
C[C@@H]1CN([C@H](C)CO)C(=O)CCCn2cc(nn2)CO[C@H]1CN(C)C(=O)Nc1ccc2c(c1)OCCO2	18&2	15&6
CCC(=O)Nc1ccc2c(c1)C(=O)N(C)C[C@@H](OC)[C@@H](C)CN(CCC(F)(F)F)[C@H](C)CO2	7	3
CN1C(=O)c2cc(NC(=O)Cc3cccs3)ccc2OC[C@H]2O[C@H](CC(=O)N[C@@H]3CCN(Cc4ccccc4)C3)CC[C@H]21	-8	-7
O=C(NCc1ccc2c(c1)OCO2)[C@@H]1[C@@H](CO)[C@@H]2Cn3c(cccc3=O)[C@H]1N2Cc1cncnc1	0	6
Cc1ccc(S(=O)(=O)N(C)C[C@H]2OCCCC[C@H](C)Oc3ccc(NC(=O)NC(C)C)cc3C(=O)N([C@H](C)CO)C[C@@H]2C)cc1	-12	-8
CO[C@@H]1CN(C)C(=O)c2ccc(NC(=O)C3CCOCC3)cc2OC[C@H](C)N(Cc2cccnc2)C[C@@H]1C	8	1
CC(C)NC(=O)Nc1ccc2c(c1)C(=O)N([C@H](C)CO)C[C@H](C)[C@@H](CN(C)Cc1ccc(Cl)c(Cl)c1)OCCCC[C@H](C)O2	?	·
COc1ccc2c3c(n(C)c2c1)[C@@H](CO)N(Cc1ccccc1F)CC31CCN(CC2CC2)CC1	?	·
CCCC(=O)Nc1ccc2c(c1)C(=O)N(C)C[C@H](OC)[C@H](C)CN(Cc1ccccc1)[C@@H](C)CO2	-18	-15
C[C@H]1CN([C@@H](C)CO)C(=O)c2cc(C3=CCCCC3)cnc2O[C@H]1CN(C)C(=O)Cc1ccccc1	-25	-24
CN(C)CC#Cc1ccc([C@@H]2[C@H](CO)N3CCCCN(C(=O)c4ccc5c(c4)OCO5)C[C@@H]23)cc1	4	1
CC(=O)N(C)C[C@@H]1Oc2ncc(-c3ccc(C)cc3)cc2C(=O)N([C@H](C)CO)C[C@H]1C	-4	-3
Cc1noc(C)c1NC(=O)N[C@@H]1CC[C@H](CC(=O)Nc2ccc(-c3ccccc3)cc2)O[C@@H]1CO	-4	-17
COc1ccc(NC(=O)Nc2ccc3c(c2)CC(=O)N([C@H](C)CO)C[C@H](C)[C@@H](CN(C)C(=O)Nc2ccccc2)O3)cc1	25	16
CN1CCN(C(=O)C[C@@H]2CC[C@@H]3[C@H](COC[C@H](O)CN3C(=O)c3ccccc3F)O2)CC1	3	3
C[C@@H]1CN([C@H](C)CO)C(=O)c2cc(-c3ccccc3F)cnc2O[C@H]1CN(C)Cc1ccccc1	-11	-20
O=C(N[C@H]1CC[C@@H](CCNC(=O)C2CC2)O[C@H]1CO)c1ccncc1	7	7
CC(C)(C)[S@](=O)N1Cc2cc(C(=O)N3CCCCC3)nc(-c3cccc(-c4ccccc4F)c3)c2[C@@H]1CCO	?	·
C[C@@H]1CCCCO[C@@H](CN(C)S(=O)(=O)c2cccs2)[C@@H](C)CN([C@@H](C)CO)C(=O)c2cc(NS(=O)(=O)c3cccs3)ccc2O1	2	3
O=C(C[C@@H]1C=C[C@H](NC(=O)c2ccccc2)[C@H](CO)O1)NCCc1ccncc1	-7	1
CN(C)CC(=O)Nc1ccc2c(c1)[C@H]1C[C@@H](CC(=O)NCc3cccnc3)O[C@H](CO)[C@H]1O2	6	6

Continued:
SMILES	Vaccinia inh	Vaccinia inh Venus
C/C=C/c1cnc2c(c1)C(=O)N([C@H](C)CO)C[C@@H](C)[C@H](CN(C)C(=O)Cc1ccccc1)O2	29	14
CN(C)CCCNC(=O)C[C@H]1C=C[C@H](NC(=O)c2ccccc2F)[C@@H](CO)O1	1	3
C[C@H](NC(=O)C[C@H]1C[C@H]2c3cc(NC(=O)C4CCOCC4)ccc3O[C@H]2[C@H](CO)O1)c1ccccc1	9	3
O=C(Nc1cccc(Cl)c1)N[C@H]1CC[C@@H](CCNC(=O)C2CCCCC2)O[C@@H]1CO	2	-2
C[C@H](CO)N1C[C@H](C)[C@H](CN(C)C(=O)CCN(C)C)OCc2ccccc2-c2c(n(C)c3ccccc23)C1=O	?	·
CC(C)C#Cc1ccc2c(c1)O[C@H](CN(C)S(=O)(=O)c1cn(C)cn1)[C@H](C)CN([C@H](C)CO)S2(=O)=O	-2	-11
COCC(=O)Nc1ccc2c(c1)[C@@H]1C[C@@H](CC(=O)NCc3ccccn3)O[C@@H](CO)[C@@H]1O2	8	4
O=C(C[C@@H]1C[C@H]2c3cc(NC(=O)c4cccnc4)ccc3O[C@H]2[C@H](CO)O1)NCCc1ccccc1	8	14
CN(C)C(=O)c1ccc(-c2ccc([C@@H]3[C@@H](C#N)N(C(=O)C4CCCC4)[C@H]3CO)cc2)cc1	-23	-15
C[C@@H]1CN([C@@H](C)CO)C(=O)c2cc(NC(=O)CCCCCC(=O)Nc3ccccc3N)ccc2O[C@H]1CN(C)Cc1ccccc1	-2	3
O=C(C[C@H]1CC[C@@H]2[C@H](COC[C@H](O)CN2Cc2ccccc2F)O1)N[C@@H]1CCN(Cc2ccccc2)C1	-28	-25
C[C@H]1CN([C@@H](C)CO)C(=O)Cc2cc(NC(=O)Cc3cn(C)c4ccccc34)ccc2O[C@H]1CN(C)S(=O)(=O)c1ccc(F)cc1	-18	-8
Cc1noc(C)c1NC(=O)Nc1cccc2c1O[C@H](CN(C)Cc1ccncc1)[C@H](C)CN([C@H](C)CO)C2=O	36	16
COc1cccc(NC(=O)N(C)C[C@@H]2Oc3ncc(C#Cc4ccccc4)cc3C(=O)N([C@@H](C)CO)C[C@@H]2C)c1	-23	-22
O=C(C[C@@H]1CC[C@@H]2[C@H](COC[C@@H](O)CN2C(=O)Nc2cccc(Cl)c2)O1)NCc1ccccc1F	-20	-17
C[C@@H]1CN([C@@H](C)CO)C(=O)c2cc(NC(=O)C3CCCCC3)ccc2O[C@@H]1CN(C)S(C)(=O)=O	10	1
C[C@@H]1CCCCO[C@@H](CN(C)Cc2ccc3c(c2)OCO3)[C@@H](C)CN([C@H](C)CO)C(=O)c2cc(NC(=O)Nc3ccccc3)ccc2O1	-28	-23
O=C(O)C[C@H]1C[C@@H]2c3cc(NC(=O)NC4CCCC4)ccc3O[C@@H]2[C@H](CO)O1	11	12
Cc1ccc(S(=O)(=O)Nc2ccc3c(c2)C(=O)N([C@H](C)CO)C[C@@H](C)[C@H](CN(C)Cc2ccc(C(F)(F)F)cc2)OCCCC[C@H](C)O3)cc1	?	·
CCC(=O)N1CC(=O)N2[C@H](CO)[C@H](c3ccc(C#CCc4ccccc4)cc3)[C@@H]2C1	7	6

In another format: seven of the compounds above.
Fields – Vaccinia inh	Vaccinia inh Venus
- C[C@H](CO)N1C[C@H](C)[C@H](CN(C)C(=O)CCN(C)C)OCc2ccccc2-c2c(n(C)c3ccccc23)C1=O
 : ?	·
- COCC(=O)Nc1ccc2c(c1)[C@@H]1C[C@@H](CC(=O)NCc3ccccn3)O[C@@H](CO)[C@@H]1O2
 : 8	4
- CN(C)CCCNC(=O)C[C@H]1C=C[C@H](NC(=O)c2ccccc2F)[C@@H](CO)O1
 : 1	3
- Cc1noc(C)c1NC(=O)Nc1cccc2c1O[C@H](CN(C)Cc1ccncc1)[C@H](C)CN([C@H](C)CO)C2=O
 : 36	16
- O=C(C[C@@H]1C[C@H]2c3cc(NC(=O)c4cccnc4)ccc3O[C@H]2[C@H](CO)O1)NCCc1ccccc1
 : 8	14
- C[C@H]1CN([C@@H](C)CO)C(=O)Cc2cc(NC(=O)Cc3cn(C)c4ccccc34)ccc2O[C@H]1CN(C)S(=O)(=O)c1ccc(F)cc1
 : -18	-8
- CCC(=O)N1CC(=O)N2[C@H](CO)[C@H](c3ccc(C#CCc4ccccc4)cc3)[C@@H]2C1
 : 7	6
